High-throughput results from PubChem.
hNpr1 antagonist: human Npr1 receptor antagonism; P16066; Potency, µM (highest dose often 46.3 µM), without a hit: at the highest dose activity change, negative = inhibition, most hits filed as inhibitors; HEK293 hNpr1 GloSensor cGMP, ANP-stimulated luminescence; 1.6% of 76,000 active; active = well fitted inhibition curve with a large enough effect; inconclusive = small, poorly fitted or top-dose-only effect; inactive = no such curve, though single readings can be large or run the other way;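 further: nearly all actives have a fitted effect of over 60% in size; nearly all hits also lower the signal before the agonist is added; a reference antagonist and vehicle were the controls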
Target sequence (P16066 whole entry, looked up): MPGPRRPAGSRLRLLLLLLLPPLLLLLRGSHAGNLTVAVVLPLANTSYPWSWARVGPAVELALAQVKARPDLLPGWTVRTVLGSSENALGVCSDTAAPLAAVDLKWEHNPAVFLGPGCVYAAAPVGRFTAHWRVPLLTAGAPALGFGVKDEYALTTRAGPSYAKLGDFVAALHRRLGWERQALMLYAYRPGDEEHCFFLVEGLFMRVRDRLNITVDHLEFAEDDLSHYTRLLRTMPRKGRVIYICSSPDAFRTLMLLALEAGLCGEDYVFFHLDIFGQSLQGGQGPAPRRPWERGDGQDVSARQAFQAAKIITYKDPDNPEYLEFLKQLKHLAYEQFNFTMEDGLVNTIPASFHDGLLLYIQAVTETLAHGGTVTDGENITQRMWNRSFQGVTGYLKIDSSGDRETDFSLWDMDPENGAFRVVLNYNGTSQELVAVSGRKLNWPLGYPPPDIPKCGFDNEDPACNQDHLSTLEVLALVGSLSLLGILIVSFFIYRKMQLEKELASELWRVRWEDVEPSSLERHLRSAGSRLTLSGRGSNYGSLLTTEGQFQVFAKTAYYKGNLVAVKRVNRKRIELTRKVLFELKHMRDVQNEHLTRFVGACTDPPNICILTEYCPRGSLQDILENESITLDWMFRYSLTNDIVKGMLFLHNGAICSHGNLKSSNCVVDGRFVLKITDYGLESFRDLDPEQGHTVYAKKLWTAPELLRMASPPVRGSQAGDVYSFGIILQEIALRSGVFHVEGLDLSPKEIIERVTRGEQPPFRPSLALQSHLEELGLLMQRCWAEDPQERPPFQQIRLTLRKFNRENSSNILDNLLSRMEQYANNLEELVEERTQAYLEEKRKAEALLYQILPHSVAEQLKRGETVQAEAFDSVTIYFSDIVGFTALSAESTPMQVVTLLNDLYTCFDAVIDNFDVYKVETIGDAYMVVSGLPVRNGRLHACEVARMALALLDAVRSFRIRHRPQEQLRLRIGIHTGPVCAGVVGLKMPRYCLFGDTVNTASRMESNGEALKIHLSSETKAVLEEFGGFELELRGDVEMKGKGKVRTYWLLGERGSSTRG
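Compound pre-incubated 30 min at room temperature on GloSensor-loaded HEK293 cells stably carrying hNpr1 and the pGS-40F cGMP biosensor. Stimulation uses hNppA at 0.1 nM final; luminescence is taken at baseline and 20 min post-agonist.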
Numbers without * were called inactive; ? = inconclusive; [ ] = dose if it differs, or a comment. On the % scale 0 is the no-effect control and ±100 the full control effect; potency means the concentration at half of the fitted maximal effect.

SMILES	hNpr1 antagonist
COc1ccc(C(=O)N2CCOCC3(CN(Cc4cc(F)cc(F)c4)C3)C2)c(OC)n1	-2.3%[70.6 µM]
O=S(=O)(N[C@H]1[C@H](O)[C@H](O)C[C@@H]1c1cncnc1)c1ccc(C(F)(F)F)cc1	6.5%[70.6 µM]
Cc1cccc(CN(C)C2CCCc3ccccc32)c1 (stereo not drawn)	26.8%[70.6 µM]
CCOCC1(C)COc2ccc(C(=O)NCc3cc(OC)cc(OC)c3)cc2N1 (stereo not drawn)	-21.7%[70.6 µM]
Cc1ccc(C2Cn3nnc(C(=O)N4CCC(C(=O)Nc5ccc(F)c(Cl)c5)CC4)c3CO2)cc1 (stereo not drawn)	?
COCCNC(=O)c1coc(COc2ccc3c(c2)C(c2cccc(F)c2)N(C(=O)C(C)C)CC3)n1 (stereo not drawn)	0.8%
CCCS(=O)(=O)NCc1cccnc1Oc1ccc(F)c(F)c1	4.5%
CC(C)(C)CC(=O)N1CCC(N2C(=O)CCC2C(=O)NCc2ccccc2)CC1 (stereo not drawn)	0.9%
N#Cc1ccc(C(=O)N2CCN(C(=O)c3nnn4c3COC(c3ccc(Cl)cc3)C4)CC2)cc1 (stereo not drawn)	-17.1%
O=C(c1cccc(F)c1)N1CCN(c2nnc3ccc(Cl)cn23)CC1	11.0%
CCOC(=O)C1(Cc2ccc(Cl)cc2)CCN(C(=O)CC2=CCCCC2)CC1	4.5%
COc1ccc(NC(=O)c2ccc(CN3C(=O)NC4(CCOCC4)C3=O)cc2)cc1OC	0.0%
CN(C)C(=O)N1CCC(C(=O)N2CCCC(c3ccc(C(=O)O)cc3)C2)CC1 (stereo not drawn)	6.2%
O=C1NCCN2CC3(CCN(C(=O)c4cnccn4)CC3)CC12 (stereo not drawn)	-2.2%
Cc1ccccc1-c1cnc2[nH]cc(CC(=O)NCc3ccccc3)c2c1	12.6µM*
CC(C)C(=O)NC(C)C(=O)N1CCN(c2ccccn2)CC1 (stereo not drawn)	1.8%
c1nc(-c2cc(NC3CCNCC3)nc3[nH]ccc23)c2sccc2n1	-12.9%
CC(C)CNC(=O)C1CC(=O)N(c2n[nH]c3cc(Br)ccc23)C1 (stereo not drawn)	2.4%
Cc1noc(-c2cn(C3CCN(C(=O)C4(c5ccccc5)CC4)CC3)nn2)n1	-0.1%
CNC(=O)c1cccc(-c2cnc(Nc3ccccc3)c3c2CCO3)c1	-5.9%[70.6 µM]
CNC(=O)[C@H]1C[C@H](Oc2ccccc2)CN1C(=O)Nc1cccc(F)c1	0.2%
Cc1ccccc1C(=O)N1CCC(c2nn(-c3ccc(F)cc3)c(=O)[nH]2)CC1	8.9%
CN(CC1CCOCC1)S(=O)(=O)c1ccc(F)c(F)c1	6.1%
COc1ccc2c(c1)CCN=C2C[C@H]1CN(C(=O)c2c(C)noc2C)CC[C@H]1CC(=O)O	1.0%
O=C(NCCCO)C1CC(=O)N(c2n[nH]c3cc(Br)ccc23)C1 (stereo not drawn)	4.2%
Cc1cnc(CC2CCN(C(=O)C(C)c3ccccc3)CC2)n1Cc1ccc(F)cc1 (stereo not drawn)	-3.0%
COc1ccc(C[C@H](NC(=O)[C@@H]2C[C@H](NC(=O)Nc3cccc(SC)c3)CN2C(=O)C=C(C)C)C(N)=O)cc1	3.1%
COc1ccc(-c2cc(N3CCC(NC(=O)Cc4cccc(OC)c4)CC3)n[nH]2)cc1	-6.9%
COc1ccc(C)cc1NC(=O)[C@H]1CCC[C@H]1NC(=O)c1cnc(C)cn1	3.0%
Cc1ccc(CNC(=O)CN2C(=O)C(c3ccccc3)=NC23CCCCCC3)cc1	-15.8%
O=C(CC[C@@H]1CNC(=O)[C@@H]2C[C@H](NC(=O)c3ccccc3)CN12)NCc1ccc(F)cc1	0.0%
O=C1COc2ccc(-c3ccsc3)nc2CN1Cc1ccc(C(F)(F)F)cc1	-21.2%[70.6 µM]
O=C(CCCc1ccccc1)Nc1ccnn1C1CCN(C(=O)c2ccccc2F)CC1	0.7%
CNC(=O)[C@@H]1CN(C(=O)c2cc3ccc(OC)cc3[nH]2)C[C@H]1c1n[nH]c(C)n1	-6.5%
CCCCCC(=O)N1CC[C@@H](CC(=O)N(C)CCC#N)[C@@H](CC)C1	-6.6%[70.6 µM]
O=C(O)COc1ccc(-c2nccc3c2C(=O)N(Cc2ccccc2)CC(COc2ccc4cccnc4c2)O3)cc1 (stereo not drawn)	2.4%
CCCN(CC1CCOC1)S(=O)(=O)c1ccc(C)c(C)c1 (stereo not drawn)	4.9%
O=C(c1ccc2c(c1)OCO2)N1CCC(N2CC3CC(C2)[C@H]2CCCC(=O)N2C3)CC1 (stereo partly drawn)	0.1%
Cc1cc2nc3n(c(=O)c2n1CC(=O)NC1CCCC1)CCCCC3	-2.0%
CCC1=C(C(=O)OC)C(c2ccccc2F)N2C(CC(=O)NCC3CCCO3)=CSC2=N1 (stereo not drawn)	-18.5%
O=C(Nc1ccc([C@H]2OCC(=O)N(Cc3ccc(F)cc3)[C@@H]2CO)cc1)C1CC1	5.2%[70.6 µM]
Cc1cc(C(=O)NCCc2csc(-c3cccnc3)n2)cc(S(N)(=O)=O)c1C	0.3%
Cc1ccccc1CN1CCc2ncc(C(=O)NCCC(C)C)n2CC1	-2.7%[70.6 µM]
COc1ccc(CN2CC3(CCN(C(=O)CCc4nc5ccccc5[nH]4)CC3)C2=O)cc1	2.1%
COC(=O)CNC(=O)N1CCCN(S(C)(=O)=O)C(c2ccccc2)CC(=O)NCC1 (stereo not drawn)	4.3%
Cc1oc(-c2ccccc2)nc1CC(=O)N1Cc2ccccc2C(O)C1 (stereo not drawn)	-1.3%
CN1Cc2cccn2CC1CNC(=O)c1ccccc1 (stereo not drawn)	-2.1%
O=C(c1ccccc1OCC1CCCN(Cc2ccc(F)cc2)C1)N1CCCCC1 (stereo not drawn)	-12.0%
CC1(c2ccccc2)N(Cc2ncccn2)C(=O)OC12CCN(Cc1cccc(OC(F)(F)F)c1)CC2 (stereo not drawn)	-7.7%
CCOCCOC1CCN(C(=O)COc2ccccc2)CC1	5.5%
O=C(CC1CCCC1)N1CCC(N2CC(OCC3CC3)C23CCOCC3)CC1 (stereo not drawn)	-0.2%
COc1ccnc(-c2nnc3ccc(N(C)Cc4ccccc4)nn23)c1	-10.0%[70.6 µM]
O=C1NC2(CCN(CC3CCCCC3)CC2)COc2ccccc21	3.6%[70.6 µM]
Cn1c(Cn2cccn2)nnc1C1CC(Nc2ncnc3sccc23)C1 (stereo not drawn)	-6.8%
O=C(c1ccco1)N1Cc2[nH]cnc2C[C@H]1c1nc(-c2ccncc2)no1	2.2%[70.6 µM]
COC1CCOC2(CCN(C(=O)c3ccc4ccccc4n3)CC2)C1 (stereo not drawn)	-5.1%

Carrying on.
SMILES	hNpr1 antagonist
CC1(C(=O)NCc2cccnc2)CCCc2cnc(NCc3ccccc3)nc21 (stereo not drawn)	5.9%[70.6 µM]
CCC(=O)N1CC(N(CC)C2CCOCC2)C1	10.0%
COc1cccc([C@H]2CN(C(=O)c3ccc4cc[nH]c4c3)C[C@@H]2N)c1	0.3%
CNC(=O)C1(N2CCC[C@H]2C(=O)N2CCCCC2)COC1	-2.9%[70.6 µM]
O=C1CCN(C(=O)NCCc2ccccc2)CCCC(c2nc(-c3cccnc3)no2)CCN1 (stereo not drawn)	4.6%
Cc1ccc(-c2nc(-c3nnn4c3COC(c3ccc(Cl)cc3)C4)no2)cc1 (stereo not drawn)	-8.3%
Cc1cc(=O)n(CC(=O)NCc2ccccc2Cl)c(N(C)Cc2ccccc2)n1	-23.2%
CN1C[C@H](NC(=O)c2ccc3c(c2)OCO3)CCC[C@@H](C(=O)NCc2cc(F)cc(F)c2)CC1=O	-0.2%
CN1C(=O)CO[C@H](c2ccc(NC(=O)c3cccc(F)c3)cc2)[C@H]1CO	-0.6%[70.6 µM]
COc1ccccc1CCC(=O)N1CCC2(CC1)N=C(c1ccc(Cl)cc1)NO2	-4.4%
c1ccc(-c2ccnc3nc(CCC4CCCC4)nn23)nc1	-1.4%
O=S(=O)(NC[C@H]1OC[C@@H](NCc2ccccc2F)[C@@H]1O)c1ccccc1	-1.3%[70.6 µM]
CN1CCN(C(=O)c2cccc3c2NCCC3)CC12CCNC(=O)CC2 (stereo not drawn)	-5.0%
CC(=O)N1CCC(C(=O)N2CC(c3nc(CCOc4cccc(C)c4)no3)C2)CC1	0.6%
CCN(Cc1cccc(OCCO)c1)CC1CCCN(CCc2cccc(OC)c2)C1 (stereo not drawn)	-3.5%
COc1ccc2c(c1)OCC(C(=O)NCCCN1CCCc3ccccc31)C2 (stereo not drawn)	-0.5%
COc1ccc(C2(C(=O)N3CCCCCCN(C)C(=O)[C@@H]4CCC[C@@H]43)CC2)cc1	2.5%
CC(=O)Nc1ccc(CNC(=O)CNC2CCN(S(C)(=O)=O)CC2)cc1	-0.6%
COCCN1C(=O)[C@@H]2C[C@@H](CN2Cc2ccc(C(F)(F)F)cc2)Oc2ccccc21	-1.9%[70.6 µM]
COc1cc(=O)n2c(c1C(=O)NCc1cccc(C(F)(F)F)c1)CCCC2	4.7%
COc1ccc(S(=O)(=O)N2C[C@@H]3C[C@H](C2)c2ccc(-c4cccc(C(F)(F)F)c4)c(=O)n2C3)cc1	2.8%
O=C(Cn1ccn2nc(-c3ccc(F)cc3)c(CO)c2c1=O)Nc1ccc(C(F)(F)F)cc1	1.1%
COCCOC1CCOC2(CCN(C(=O)NCCc3ccccc3)CC2)C1 (stereo not drawn)	-2.3%
COc1ccc(N2C(=O)[C@@H]3Cc4nc[nH]c4CN3C2=O)cc1	-0.8%[70.6 µM]
Cn1cc(CN2CCN(C(=O)c3c[nH]c4ccccc34)CC2)ccc1=O	-2.5%
O=C(NC[C@H]1OC[C@@H](NC2CCOCC2)[C@@H]1O)C1CCCC1	2.8%[70.6 µM]
CCc1ccc(C(=O)N2CC(c3nnc(-c4ccncc4)o3)C3(CCOCC3)C2)cc1 (stereo not drawn)	-0.1%
CN(CC(=O)N1CCC(CCOc2ccccc2F)C1)S(=O)(=O)c1cccs1 (stereo not drawn)	-16.3%
O=C(O)c1cc(-c2cn[nH]c2)cc(S(=O)(=O)N2CCSCC2)c1	6.4%
O=[S+]([O-])(Nc1cccnc1)c1ccc2c(c1)OCCN(Cc1ccsc1)C2	?
Cc1ccccc1Cn1cc(-c2ccncc2)cc1C(=O)N1CCCC1	3.7%
O=C(NCc1ccc(Cl)cc1)c1cc2cccnn2n1	0.3%[70.6 µM]
O=C(Cn1ccn2nc(-c3ccccc3)c(CO)c2c1=O)Nc1cccc(C(F)(F)F)c1	-19.4%
CN(C)c1cccc(C(=O)Nc2ncc(-c3cccc(F)c3)c3c2OCC3)c1	-11.9%[70.6 µM]
CS(=O)(=O)N(C1CCOCC1)C1CN(C(=O)CCc2c[nH]c3ccccc23)C1	1.3%
CC(C)CCN1CC[C@@H]2OCC(=O)N(Cc3ccccc3)[C@H]2CC1	-1.6%[70.6 µM]
CN1CC(=O)N(C2CCCC2)Cc2c1ncnc2N1CCN(Cc2ccccc2)CC1	-4.2%
COc1cc(CN2CCC(C)(c3noc(C4CCOCC4)n3)CC2)cc(OC)c1	?
O=C(Nc1ccccc1F)N1CCCC(c2nc(C3CCOCC3)no2)C1 (stereo not drawn)	2.8%
COC(=O)[C@H](Cc1ccc(OC)cc1)NC(=O)[C@H]1CN(C(=O)c2ccc(N(C)C)cc2)CCN1S(=O)(=O)c1ccccc1	-20.8%

Laid out differently: entries from further up
CN1CC(=O)N(C2CCCC2)Cc2c1ncnc2N1CCN(Cc2ccccc2)CC1
  hNpr1 antagonist = -4.2%

COc1cc(CN2CCC(C)(c3noc(C4CCOCC4)n3)CC2)cc(OC)c1
  hNpr1 antagonist = ?

O=C(Nc1ccccc1F)N1CCCC(c2nc(C3CCOCC3)no2)C1 (stereo not drawn)
  hNpr1 antagonist = 2.8%

COC(=O)[C@H](Cc1ccc(OC)cc1)NC(=O)[C@H]1CN(C(=O)c2ccc(N(C)C)cc2)CCN1S(=O)(=O)c1ccccc1
  hNpr1 antagonist = -20.8%

(cont.)
SMILES	hNpr1 antagonist
COC(=O)c1ccc2nc(C[C@@H]3C[C@@H](C(C)C)[C@H](CNC(=O)CC(C)(C)CC(=O)O)C=C3C)[nH]c2c1	1.9%
C#CCN(C)CC[C@@H]1CC[C@H](O)[C@@H](C(=O)Nc2ccccc2)O1	-2.2%[70.6 µM]
Cc1cccc(-c2ccc3c(c2)C(=O)N2CC[C@H](NC(=O)CCC(=O)O)[C@H]2C(=O)N3)c1C	2.0%
O[C@@H]1C[C@@H](c2nnc3n2CCN(Cc2ccc4[nH]ccc4c2)C3)N(Cc2ccccc2)C1	0.2%
COc1ccc(F)cc1S(=O)(=O)N1CCc2nn(CC3CC3)c(=O)n2CC1	-18.5%
Cn1nc(C(=O)N2CCCC(CN3CCCC3)CC2)c2ccccc21 (stereo not drawn)	-11.7%
NS(=O)(=O)c1ccc(CCNC(=O)c2nnn3c2COC(c2ccc(F)cc2)C3)cc1 (stereo not drawn)	1.1%
CCOc1ccc(C(=O)N2CC(COC)C3(CCNCC3)C2)cc1OCC (stereo not drawn)	1.2%
COc1cc(=O)n2c(c1C(=O)Nc1ccc(Cl)cc1Cl)CCCC2	-2.6%
COc1ncccc1Nc1cnc2ccc(N(C)Cc3ccc(F)cc3)nn12	?
CN1C(=O)C2(CCN(C(=O)c3ccc(C(F)(F)F)cc3)C2)c2ccccc21 (stereo not drawn)	27.3%

Only part of the results is shown; rates above refer to the full screens.
